Ab BasE inh – inhibitors of Acinetobacter baumannii siderophore enzyme BasE; purified BasE, fluorescence polarization binding displacement; inhibition, % (concentration not given with the values); 0.1% of 84,000 active; AID 485350;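 active = both replicates above 25% with normal brightness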;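 also: 0% = negative plate control signal and 100% = positive plate control signal; stock transfer was 100 nL into about 30 µL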
KSHV LANA nucl – inhibitors of KSHV LANA binding to nucleosomes; FITC-LANA1-23 / chicken nucleosome fluorescence polarization; active compounds read low; z-score (no concentration beside the values); 0.3% of 51,000 active; AID 720717;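 active = both repeat wells score below -2 in polarization z-score versus plate sample wells, excluding overly bright wells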;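 also: 100 nL library stock added to about 30 µL; numbers are from one replicate; some results filed as inactive read as strong as hits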
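Test system: purified chicken nucleosomes with FITC-labelled LANA N-terminal peptide (1-23); Input: 240 nM purified chicken nucleosomes (480 nM peptide binding sites), final; Medium: TEN-BT buffer, pH 7.5; Timing: 10–45 min, room temperature; Technique: fluorescence polarization, 480 nm excitation, 535 nm parallel and perpendicular emission; Replication: duplicates.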
Active calls of the source: *; · = not tested or not shown. An excerpt; rates above refer to the full screens.

Value order – Ab BasE inh, KSHV LANA nucl
CCOc1ccc(S(=O)(=O)NCCC(=O)NC2CCC(C)CC2)cc1 (configuration not stated)
    -1.8, ·
CCn1ccc(C(=O)Nc2ccc(C)c(C)c2)n1
    -2.2, 0.415
Cc1cc(NC(=O)CC(C)(C)CC(=O)O)n(C)n1
    -0.7, -0.314
Cc1cc(=O)n2[nH]c(C34CC5CC(CC(C5)C3)C4)nc2n1
    0.0, 0.567
COc1ccccc1CC(=O)NC(C)C1CCCO1 (configuration not stated)
    -1.0, 0.483
O=C(NC1CCC(O)CC1)c1ccc(S(=O)(=O)N2CCCc3ccccc32)cc1 (configuration not stated)
    1.7, ·
Cc1ccc2cc(CN(Cc3cccs3)Cc3nnnn3C(C)(C)C)c3nnnn3c2c1
    2.9, 0.289
Cc1nc(SCC(=O)Nc2nccs2)[nH]c(=O)c1C
    0.1, 0.641
Cc1c(CC(=O)N2CCCC2)c(=O)oc2cc3occ(C(C)(C)C)c3cc12
    0.4, 0.49
Cc1cc(F)ccc1S(=O)(=O)N1CCCCC1CCNC(=O)NC1CCCCC1 (configuration not stated)
    0.7, -0.992
CCOC(=O)/C=C1\SCC(=O)N1Cc1ccc(C)cc1
    0.3, ·
O=c1c2ccccc2nc2sc(Nc3c(F)cccc3F)nn12
    0.6, 0.615
O=C(Nc1nnc(C2CC2)s1)c1ccc2c(c1)S(=O)(=O)c1ccccc1C2=O
    -0.5, ·
Cn1c(=O)c2c(nc(CN3CCOCC3)n2CC(=O)C(C)(C)C)n(C)c1=O
    0.6, -0.313
COC(=O)c1ccccc1NC(=O)COc1ccc2oc(-c3ccco3)cc(=O)c2c1
    -1.6, 0.0135
O=C1NCCN1CCNS(=O)(=O)c1cccc2cccnc12
    -1.7, -0.289
CCOC(=O)Cc1csc(SCC(=O)/C(C#N)=C(\C)N)n1
    0.7, ·
OC1CCN(CC2CC=CCC2)CC1 (configuration not stated)
    0.3, 0.62
C/C(=C/C(=O)C(F)(F)F)N1CCN(S(=O)(=O)c2cccc(Cl)c2)CC1
    0.8, ·
Cn1c(O)c(Cc2c[nH]c3ccccc23)c(=O)n(C)c1=O
    0.6, -0.439
O=C(NC(=S)NC12CC3CC(CC(C3)C1)C2)c1ccccc1
    0.2, ·
COCCOC(=O)C1=C(N)C(C(=O)Nc2cccc(C#N)c2)SC1=Nc1ccc(C)cc1C (configuration not stated)
    1.4, ·
CN1CCN(C(=O)c2ccc3c(c2)S(=O)(=O)c2ccccc2C3=O)CC1
    0.5, ·
CC(CCNS(=O)(=O)c1ccc(-c2cc(C(F)(F)F)no2)s1)N1CCCCCC1 (configuration not stated)
    0.1, ·
CC(C)C(=O)Nc1nc2c(ncn2C2OC(CO)C(O)C2O)c(=O)[nH]1 (configuration not stated)
    -1.0, -1.18
Cc1cc(C(F)(F)F)nc(Sc2nc(C)cc(C)c2C#N)n1
    2.2, 0.373
N#Cc1cccc(Nc2c3c(nc4ccccc24)CCC3)c1
    -1.4, 0.603
O=S(=O)(Nc1ccc(CN2CCCCC2)cc1)c1ccc(-n2cccn2)cc1
    -6.0, -0.518
CCc1ccccc1NC(=O)N1CCN2CCCCC2C1 (configuration not stated)
    -0.1, ·
CC(=O)Nc1ccc(S(=O)(=O)NCc2cccn2Cc2ccc(F)cc2)cc1
    -2.9, -0.627

In another format: 4 of the compounds above
N#Cc1cccc(Nc2c3c(nc4ccccc24)CCC3)c1
  Ab BasE inh: -1.4	KSHV LANA nucl: 0.603

Cc1nc(SCC(=O)Nc2nccs2)[nH]c(=O)c1C
  Ab BasE inh: 0.1	KSHV LANA nucl: 0.641

O=c1c2ccccc2nc2sc(Nc3c(F)cccc3F)nn12
  Ab BasE inh: 0.6	KSHV LANA nucl: 0.615

CN1CCN(C(=O)c2ccc3c(c2)S(=O)(=O)c2ccccc2C3=O)CC1
  Ab BasE inh: 0.5	KSHV LANA nucl: ·

Later entries
Value order – Ab BasE inh, KSHV LANA nucl
O=C(Nc1ccccc1)N1CCc2c([nH]c3ccccc23)C1C(F)(F)F (configuration not stated)
    -6.3, ·
O=S1(=O)C=CC(Nc2cccc3ccccc23)C1 (configuration not stated)
    -3.7, 1.02
[O-][n+]1ccccc1OCc1ccc(Cl)cc1
    0.5, ·
COc1cc(C(F)(F)F)nc2ccc(C)c(NC(=O)c3ccc(Cl)cc3)c12
    -0.5, ·
COc1ccc(OCCC(=O)NCc2ccccc2)cc1
    5.3, -0.403
COC(=O)C1=C(C(=O)c2ccccc2)C(c2ccccc2)n2ncnc2N1 (configuration not stated)
    -1.0, 0.727
Cc1cccc(OCCn2cnc3c(cnn3C)c2=O)c1
    -4.0, ·
COc1ccc(OC)c(NC(=O)CCc2c(C)nc3c(c(C)nn3C)c2C)c1
    -2.0, 0.447
CCCn1cnc2c(N)c(C)c(C)cc21
    ·, 0.485
Nc1nc2n[nH]nc2c(=O)[nH]1
    0.5, 2.58
CCn1cc(NC(=O)NCC2COc3ccccc3O2)c(=O)c2ccc(C)nc21 (configuration not stated)
    2.1, -1.4
CC(C)(C)c1ccc(/C=C/C(=O)Nc2ncccn2)cc1
    -3.2, 1.54
Cc1ccc(SCC(=O)Nc2nncs2)cc1
    0.8, ·
CNC(=O)CN1CCNCC1
    -2.2, ·
S=C(NCc1cccs1)N1CCN(c2ncccn2)CC1
    2.7, ·
CCc1nnc(SCC(=O)N(CC)Cc2ccccc2)c2cc3occc3n12
    -5.4, 1.3
CCOC(=O)c1ccc(N2C(=O)C3Sc4[nH]c(=O)sc4C4(CCCCC4)C3C2=O)cc1 (configuration not stated)
    -4.8, ·
C#Cc1cccc(N2C(=O)CC(CC=C)C2=O)c1 (configuration not stated)
    0.3, 0.42
O=C(CCC(=O)c1ccc(Cl)cc1)OC1CCCCC1=O (configuration not stated)
    1.4, ·
O=C1c2ccccc2NC(c2cccs2)N1c1ccc2c(c1)OCO2 (configuration not stated)
    3.5, ·
COc1cc2c(O)c3c(c(-c4ccc5c(c4)OCO5)c2cc1OC)C(=O)OC3
    -0.1, 1.2
CCN(Cc1ccccc1)C(c1ccccn1)c1nnnn1C1CCCCC1 (configuration not stated)
    0.5, 0.756
Cn1nc(C(=O)OCc2nnc(-c3ccccc3)o2)c2ccccc2c1=O
    5.1, ·
CC1CCN(C(=O)/C=C/c2c(F)cccc2Cl)CC1
    -2.5, -0.667
N=Nc1c(O)n(CC(=O)Nc2ccccc2)c2ccccc12
    1.9, -0.585
CCC(=O)N(c1nnc(SCC(=O)NCC(F)(F)F)s1)C1CC1
    1.4, ·
CC1(C)CC(NC(=O)CCc2ccccc2)CC(C)(C)N1
    0.1, 2.69
CN(C)c1ccc(/C=C/C=C/c2cc[n+](C)cc2)cc1
    2.1, ·
CC1CC(C)CN(S(=O)(=O)c2ccc(C(=O)NCc3ccccn3)cc2)C1 (configuration not stated)
    -1.2, ·
N#Cc1cc(C(=O)c2ccccc2O)cn(-c2ccccn2)c1=O
    -1.8, ·

More compounds follow:
| smiles | Ab BasE inh | KSHV LANA nucl |
| --- | --- | --- |
| Cc1n[nH]c(=S)n(/N=C/c2ccccc2)c1=O | -4.2 | · |
| CC(C)C(=O)N(Cc1cc2ccccc2[nH]c1=O)CC1CCCO1 (configuration not stated) | 0.4 | -0.242 |
| COc1ccc(-c2ccc(/C=N/NC(N)=O)o2)cc1 | 0.1 | 1.16 |
| CCCN(CC(=O)Nc1ccccc1C)C(=O)CSc1nnc2ccccn12 | 1.6 | · |
| Cc1sc2c(c1C)-c1nc(SCC(=O)C(C)(C)C)ncc1S(=O)(=O)N2C | 0.0 | · |
| CCOC1CSc2sc(=S)sc2S1 (configuration not stated) | 2.3 | · |
| Cc1ccc(/C=C2/C(=O)/C(=C/c3ccc(C)o3)C3CCC2N3C)o1 | 11.7 | · |
| Oc1ccc(CNc2ccccc2C(F)(F)F)c2cccnc12 | 1.8 | 0.384 |
| CCC1CCc2nc3sc(C(=O)Nc4cc(Cl)ccc4OC)c(N)c3cc2C1 (configuration not stated) | 3.8 | · |
| Cc1[nH]c2ccccc2c(=O)c1Cc1c(C)[nH]c2ccccc2c1=O | 0.1 | -0.0565 |
| COCC(C)n1c(C)cc(C(=O)COC(=O)c2ccc3ncsc3c2)c1C (configuration not stated) | -2.8 | · |
| O=C1C(=O)N(CCCn2ccnc2)C(c2cccc(Br)c2)/C1=C(\O)c1ccccc1 (configuration not stated) | 1.4 | · |
| CC1(C)CC(=O)C(/C=N/n2cnc3ccccc3c2=O)=C(O)C1 | 4.1 | · |
| C#CCn1c(=NC(=O)c2ccc(N3C(=O)CCC3=O)cc2)sc2cc(Br)ccc21 | 1.3 | 0.0775 |
| COc1ccc(NC(=O)N=S2CCN(S(=O)(=O)c3ccc(Cl)cc3)CC2)cc1 | 1.9 | -0.82 |
| O=C1C2CCCCC2=NN1c1ccccc1 (configuration not stated) | -0.4 | · |
| O=S(=O)(NCc1ccncc1)c1ccc(C2CCCCC2)cc1 | -0.8 | 0.404 |
| CC1CCCCN1C(=O)C1COc2ccccc2O1 (configuration not stated) | 3.4 | 0.688 |
| COCc1[nH]nc2c1C(c1ccccc1C(F)(F)F)C(C#N)=C(N)O2 (configuration not stated) | 0.0 | 0.61 |
| Cn1c(/N=C(\C#N)c2nc3ccccc3[nH]2)c(N)c(=O)n(C)c1=O | 0.4 | · |
| Cc1ccc(Cn2c(=N)n(CC(=O)c3ccccc3)c3ccccc32)cc1 | -11.3 | 0.0005 |
| CC(OC(=O)Cc1ccsc1)C(=O)Nc1ccc(C(N)=O)cc1 (configuration not stated) | -1.0 | · |
| CCN1CCN(C(C)C(=O)NCc2ccc(OC)cc2)CC1 (configuration not stated) | -41.0 | -0.212 |
| CC(Nc1ccccc1)C(=O)Nc1ccc(F)cc1 (configuration not stated) | -1.2 | · |
| Cn1nc(C(=O)NCCSc2n[nH]c(=O)[nH]c2=O)c2ccccc2c1=O | 1.5 | · |
| CCN(Cc1ccccc1)C(=O)CS(=O)(=O)c1ccccc1 | 2.2 | 0.743 |
| O=S(=O)(c1ccc(-c2cnco2)cc1)N(Cc1ccccn1)Cc1ccccn1 | -1.7 | 0.247 |
| CN(C)Cc1nc2ccccc2c(=O)n1CC#N | -4.0 | · |
| COc1ccc(/C=C/C(=O)CC(=O)c2ccccc2O)cc1 | -1.1 | · |
| COC(=O)c1ccccc1NC(=O)Cn1c(SC)c(F)cnc1=O | 4.5 | -0.698 |

An excerpt from above in order of the KSHV LANA nucl value, falling.
Structure,KSHV LANA nucl
CCN(Cc1ccccc1)C(=O)CS(=O)(=O)c1ccccc1,0.743
CCCn1cnc2c(N)c(C)c(C)cc21,0.485
COC(=O)c1ccccc1NC(=O)COc1ccc2oc(-c3ccco3)cc(=O)c2c1,0.0135
Cc1ccc(Cn2c(=N)n(CC(=O)c3ccccc3)c3ccccc32)cc1,0.0005
CC(C)C(=O)N(Cc1cc2ccccc2[nH]c1=O)CC1CCCO1 (configuration not stated),-0.242
COc1ccc(OCCC(=O)NCc2ccccc2)cc1,-0.403
Cn1c(O)c(Cc2c[nH]c3ccccc23)c(=O)n(C)c1=O,-0.439

(next part)
| smiles | Ab BasE inh | KSHV LANA nucl |
| --- | --- | --- |
| O=C(c1ccc(F)cc1)C1CCN(Cc2cn[nH]c2-c2ccccc2)CC1 | · | 0.142 |
| N#CC1=C(N)OC2=C(CC/C2=C/c2ccccc2)C1c1ccccc1 (configuration not stated) | -8.9 | 4.07 |
| CN(C)/C=N/C(=S)NC1CC2C=CC1C2 (configuration not stated) | 2.9 | · |
| Cc1cccc(NC(=O)Cn2c(O)c(N=N)c3ccccc32)c1 | -5.3 | · |
| COc1ccccc1NC(=O)c1ccccc1C(=O)O | -1.7 | 0.0785 |
| CCC(C(=O)N1c2ccccc2Sc2ccc(C(F)(F)F)cc21)N1C(=O)c2ccccc2C1=O (configuration not stated) | -3.4 | · |
| COCc1cc(=O)[nH]c(SCC(=O)Nc2cc(C)cc(C)c2)n1 | 0.6 | -0.547 |
| CN(C(=O)Nc1ccccc1)C12CC3CC(CC(C3)C1)C2 | 0.9 | 0.353 |
| Cc1ccc(NC(=O)C/C(N)=N/OCc2ccc(C#N)cc2)cc1 | -4.5 | · |
| O=C(Cc1cccs1)Nc1nnc(C2CC2)s1 | -0.5 | · |
| CC1(C)Oc2ccccc2OC1(O)c1ccc2ccccc2n1 (configuration not stated) | -1.5 | · |
| CNC(=S)N/N=C/c1ccc(C(C)C)cc1 | 1.9 | -0.76 |
| O=C(CC1C(=O)N(c2ccccc2)C(=O)N1Cc1ccco1)Nc1ccccc1 (configuration not stated) | -1.1 | -0.635 |
| CC1(C)NCCNC1=O | 5.0 | 0.0475 |
| N#Cc1ccc(Oc2ccc(Cl)cc2Cl)cc1 | · | -0.232 |

By substructure: those above containing a COOH group.
| smiles | Ab BasE inh | KSHV LANA nucl |
| --- | --- | --- |
| Cc1cc(NC(=O)CC(C)(C)CC(=O)O)n(C)n1 | -0.7 | -0.314 |
| COc1ccccc1NC(=O)c1ccccc1C(=O)O | -1.7 | 0.0785 |

Carrying on.
| smiles | Ab BasE inh | KSHV LANA nucl |
| --- | --- | --- |
| FC(F)(F)c1cnc(NNC(=S)NCC2CCCO2)c(Cl)c1 (configuration not stated) | -1.7 | · |
| COC1=CC(=O)CC(C)C12Oc1c(Cl)c(OC)cc(OC)c1C2=O (configuration not stated) | -1.8 | 1.09 |
| O=C(c1ccccc1)n1ccc2ccccc21 | -0.1 | · |
| Cc1cc(NCCc2ccccc2)n2ncnc2n1 | -0.6 | 0.49 |
| O=C(NNc1ncnc2ccccc12)c1ccc(Br)cc1 | 2.9 | · |

Bioassay records deposited in PubChem by ICCB-Longwood Screening Facility, Harvard Medical School.
